From PubChem BioAssay
OX1R antagonist – blocks the human orexin 1 receptor | O43613 | CHO/OX1R cells, Fluo-8 calcium fluorescence, orexin A | inhibition, % at 5 µM | 0.43% of 330,000 active;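 active = inhibition above its plate's threshold, mean inhibition of all tested compounds on the plate plus 3 SD, cut at about 37% in these data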;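 note: 0% = orexin A challenge wells and 100% = SB-334867-A antagonist wells; not every result past the cut was called active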
Target sequence (O43613 whole entry, looked up): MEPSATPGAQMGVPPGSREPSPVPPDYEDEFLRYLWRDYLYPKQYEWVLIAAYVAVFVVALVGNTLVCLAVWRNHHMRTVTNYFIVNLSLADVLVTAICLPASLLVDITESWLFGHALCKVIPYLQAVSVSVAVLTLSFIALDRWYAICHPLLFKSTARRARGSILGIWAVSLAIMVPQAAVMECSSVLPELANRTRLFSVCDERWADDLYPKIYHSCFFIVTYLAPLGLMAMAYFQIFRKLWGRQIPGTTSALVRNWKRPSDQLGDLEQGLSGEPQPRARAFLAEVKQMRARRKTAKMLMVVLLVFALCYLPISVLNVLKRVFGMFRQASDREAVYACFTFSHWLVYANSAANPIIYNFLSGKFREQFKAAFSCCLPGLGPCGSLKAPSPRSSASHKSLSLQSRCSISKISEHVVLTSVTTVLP
An asterisk follows results filed as active; & = joins results of further samples. An excerpt, and most or all hits are left out here.

No.	Compound	OX1R antagonist
1	CCCN(CCC)C(=S)NC1CC2C=CC1C2 (centres undefined)	-20
2	O=C1SCCc2c1n(Cc1ccccc1)c1ccccc21	-11
3	CC1=NN(c2ccccc2)C(=O)/C1=C\c1cc(C)n(C)c1C	-19
4	CN(C(=O)COC(=O)c1ccc2ccccc2n1)C1CCS(=O)(=O)C1 (centres undefined)	-7
5	O=C(OCCCC(=O)N1CCOCC1)c1ccccc1	-14
6	COc1ccc(NC(=O)C(=O)N2N=C(C(C)C)CC2(O)C(F)(F)F)cc1 (centres undefined)	-13
7	CC1(C)CC(Nc2ccc(C(F)(F)F)cc2[N+](=O)[O-])CC(C)(C)N1	-11
8	CC1(C)Cc2c(sc3c2c(=N)n(Cc2ccco2)c(=O)n3CC(=O)Nc2cccc(Cl)c2)CO1	-5
9	Cc1c(NS(=O)(=O)c2ccc3c(c2)NC(=O)CC(=O)N3)cccc1[N+](=O)[O-]	1
10	CCSc1nc2c(c(=O)[nH]1)C(c1ccncc1)C(C(=O)OC(C)C)=C(C)N2 (centres undefined)	-32
11	Clc1ccc(CNc2ccccn2)cc1	-12
12	COc1ccc(OC)c(C(C)NC(=S)Nc2ccc(S(=O)(=O)Nc3ncccn3)cc2)c1 (centres undefined)	-10
13	O=C(COc1ccc(Br)cc1Cl)NC(=O)NCc1ccccc1	-22
14	CC(=O)c1cc(-c2ccc(F)cc2)n(CCC(=O)Nc2cccnc2)c1C	-5
15	Cn1c(=O)[nH]c(=O)c2c1nc(N1CCCCCC1)n2CCSc1nc2ccccc2[nH]1	-23
16	O=C(Nc1cccc(-c2cc3ccccc3oc2=O)c1)c1ccc(Br)o1	-39
17	CCn1c(Cc2ccccc2)nnc1SCC(=O)Nc1ccc(OC)cc1	-22
18	Cc1cc(=O)n2nc(N3CCC(C(=O)NCc4ccccc4)CC3)sc2n1	-18
19	COCCCNC(=O)c1ccccc1-c1cc(C)no1	-2
20	Nc1ccc(S(=O)(=O)Nc2nc(-c3ccccc3)cc(-c3ccccc3)n2)cc1	-8
21	CCOC(=O)C1=C(c2ccccc2)O/C(=C(/C#N)C(F)(F)F)S1	-20
22	CCN1CCc2nc(SCC(=O)Nc3ccc(OC)cc3)c(C#N)cc2C1	-39
23	C=C(C)CN(CC)c1nc(N)c2c(N)nc3c(c2c1C#N)CC(=O)N3C12CC3CC(CC(C3)C1)C2	-18
24	COC(=O)c1ccccc1NC1CC(=O)N(c2c(C)cccc2C)C1=O (centres undefined)	-19
25	CCCNC(=S)N1CCC(NC(=O)C2CCCCC2)CC1	-14
26	COc1cccc(Nc2cc(C)nc3ccccc23)c1	-27
27	CCC1(c2ccc(F)cc2)NC(=O)N(CC(=O)Nc2ccc(C)c(S(=O)(=O)N3CCOCC3)c2)C1=O (centres undefined)	-13
28	CC(C)Cn1c(N)c(C(=O)COC(=O)c2cc(-c3ccco3)nc3ccccc23)c(=O)n(C)c1=O	-5
29	NC(=O)c1[nH]cnc1N	-8&-5
30	O=C1CC(c2ccccc2)n2nc(NC(=O)c3ccccn3)nc2N1 (centres undefined)	-27
31	COC(=O)c1ccc(NC(=O)COc2ccc(S(=O)(=O)NC(C)(C)C)cc2)cc1	-3
32	CCOC(=O)C1CCN(C(=O)C(=O)Nc2ccc3nc4n(c(=O)c3c2)CCCCC4)CC1	-32
33	O=C(NCCCCCCNC(=O)c1cncc(O)c1)c1cncc(O)c1	-21
34	CN(C(=O)C1CCN(S(=O)(=O)c2cccs2)CC1)c1ccccc1	6
35	O=C(Nc1ccc2c(c1)OCCO2)c1coc2ccccc2c1=O	-13
36	O=C(O)c1nc(-c2ccccc2)n(-c2ccc(Cl)cc2)n1	-13
37	Cc1ccccc1-n1c(SCC(=O)Nc2ccccc2)nc2nc3c(cc2c1=O)CCCC3	-14
38	CC(C)(C)OC(=O)N1CCC(CNC(=O)c2ccc(F)cc2F)CC1	-24
39	COc1ccc(Cl)cc1N(CC(=O)N/N=C/c1ccc(OCC(N)=O)cc1)S(C)(=O)=O	18
40	CC(C)(C)c1ccc(C(=O)NC(=S)Nc2sc3c(c2C#N)CCC3)cc1	-15
41	Cc1cccn2c(=O)c3cc(C#N)c(=NC(=O)c4cccnc4)n(CC4CCCO4)c3nc12 (centres undefined)	-2
42	COc1ccc(OC)c(N(CC(=O)Nc2ccccc2)S(=O)(=O)c2ccccc2)c1	-2
43	O=C(/C=C/c1ccc(OC(F)F)cc1)OCC(=O)N1CCN(C(=O)c2ccco2)CC1	4
44	O=C(CSc1nnc2ccccn12)Nc1ccccc1C(=O)NC1CC1	-20
45	CC(C)=CCc1c(O)cc2c(c1O)C(=O)CC(c1ccccc1)O2 (centres undefined)	-18
46	O=C1S/C(=C\c2ccc(O)c([N+](=O)[O-])c2)C(=O)N1Cc1cccc([N+](=O)[O-])c1	-18
47	C=C(C)c1nc2cc(OC)c(OC)cc2c(=O)o1	2
48	O=C(c1ccc2c(=O)n3c(nc2c1)CCCCC3)N1CCc2ccccc21	-30
49	COc1ccc(Cn2c(CCC(=O)Nc3ccccc3OC)nc3cccnc32)cc1	-21
50	Cc1c(C)n(Cc2ccccc2)c2ncnc(NCCO)c12	-9

(cont.)
No.	Compound	OX1R antagonist
51	O=C1CSC(c2ccc([N+](=O)[O-])cc2)N1c1ccccc1 (centres undefined)	1
52	Cc1ccc(OCC(=O)NC2CC(C)(C)NC(C)(C)C2)c(C)c1	-18
53	COc1ccc2c(c1)C(=O)N(Cc1ccccc1)C(=O)C2(C)C	-24
54	COc1ccc(CCNC(=O)Cn2nc(C)n3nc(-c4ccccc4)cc3c2=O)cc1OC	-23
55	CCOC(=O)c1sc(-c2ccccc2)nc1C	-22
56	COc1ccc(CCCC(=O)NCc2ccccc2)cc1C	-1
57	COc1ccc(CCNC(=O)c2ccc(CNS(=O)(=O)c3cccc(Cl)c3)cc2)cc1OC	-10
58	COc1ccccc1-n1c2nc3ccccc3nc2c2c(=O)n(-c3cc(C)cc(C)c3)cnc21	-10
59	CN1C(=O)/C(=C/c2cn(CC(=O)NCc3ccco3)c3ccccc23)NC1=S	0
60	COc1ccc(CNC(=O)CSc2ncnc3ccccc23)cc1OC	-9
61	CCC(=O)Nc1ccc(C(=O)NNC(=O)c2cc(OC)c(OC)c(OC)c2)cc1	-14
62	CCCCN(C(=O)CSc1cc(C)c2ccc(OC)cc2n1)c1c(N)n(Cc2ccccc2)c(=O)[nH]c1=O	-20
63	O=C(COC(=O)c1ccc(Cl)nc1)Nc1ccc2c(c1)OCO2	-13
64	Nc1nn(S(=O)(=O)c2ccccc2)cc1-c1ccc([N+](=O)[O-])cc1	-17
65	CC(C)NS(=O)(=O)c1ccc(OCC(=O)NCc2cccnc2)cc1	-8
66	Cc1c(N/C=C/C(=O)c2ccc(Cl)cc2)c(=O)n(-c2ccccc2)n1C	-13
67	Cc1ccccc1C(=O)Nc1nc2c(C)csc2c(=O)s1	-40
68	CCOc1cccc(OCCCCn2ccnc2)c1	-2
69	O=C(CN1C(=O)NC2(CCCC2)C1=O)Nc1ccccc1-c1ccccc1	-22
70	CC(C)Cn1c(N)c(C(=O)COC(=O)c2cc(C(F)(F)F)nc3c(C(F)(F)F)cccc23)c(=O)n(C)c1=O	-16
71	O=C(CSc1nnc2n1CCCN2)c1ccccc1	-17
72	CCCCn1c(N)c(N(CCOC)C(=O)COC(=O)C(C)(C)Oc2ccc(Cl)cc2)c(=O)[nH]c1=O	-10
73	N=c1c2c(-c3ccccc3)c(-c3ccccc3)oc2ncn1Cc1ccco1	-17
74	COC(=O)c1ccccc1NC(=O)NCc1c(C)nn(C)c1C	-3
75	CC(=O)Nc1ccc(C(=O)OCc2ccc(F)cc2Cl)cc1	-16
76	CCOc1ccccc1NC(=O)c1ccoc1C	-19
77	N#CC1=C(N)Oc2c(ccc3cccnc23)C1c1ccncc1 (centres undefined)	-3
78	CCCCCC(=O)NN1C(=S)N(c2ccc(OC)cc2)C(=O)C1CC(=O)Nc1ccccc1 (centres undefined)	-2
79	CCc1c(C)nc(N)n2c(SCC(=O)N3CCCc4ccccc43)nnc12	-5
80	C=CCN1CCN(C(CC(C)C)c2nnnn2CCOC)CC1 (centres undefined)	-22
81	Cc1ccnc(N2C(=O)c3ccccc3C2O)c1 (centres undefined)	-4
82	O=C(N/N=C/C=C/c1ccccc1)NC1CCCCC1	-21
83	CCOC(=O)CNC(=O)c1cn(CC)c(=O)c2cc(OC)c(OC)cc12	2
84	O=C(Nc1ccc(C(=O)O)cc1)/C(=C\c1ccc2c(c1)OCO2)NC(=O)c1ccc(Br)cc1	-11
85	O=C(COC(=O)CCc1nc2ccccc2c(=O)[nH]1)Nc1ccc(N2CCOCC2)cc1	-11
86	N#CC(C(N)=O)=C1CCC2(CC1)OCCCCO2	2
87	CC(C)CNC(=S)Nc1ccccc1F	6
88	Cc1cccc(NC(=O)CN2CCSc3ccccc32)c1	-12
89	COc1ccc(OC)c(C2C(C(=O)c3sc(C)nc3C)=C(O)C(=O)N2CCN2CCOCC2)c1 (centres undefined)	-7
90	Cn1c(=O)c2c(nc(N3CCC(C(N)=O)CC3)n2CCSc2nc3ccccc3s2)n(C)c1=O	-22
91	CCn1c(SCC(=O)NCC2CCCO2)nc2c([nH]c3ccccc32)c1=O (centres undefined)	-16
92	COCCNC(=O)C1CC(c2ccccc2[N+](=O)[O-])=NO1 (centres undefined)	-17
93	S=C(Nc1ccccn1)Nc1ccccc1Cl	-11
94	CCN1C(=O)[C@H]2[C@@H](c3ccc(SC4CCCCC4)cc3)N[C@@](CC(C)C)(C(=O)OC)[C@H]2C1=O	-26
95	CNC(=O)CN1C(=O)C2C3C=CC(C3)C2C1=O (centres undefined)	-4
96	CCCCC(=O)NC(Nc1cc(C)ccn1)(C(=O)OCC)C(F)(F)F (centres undefined)	-7
97	Cc1cc(=O)n2[nH]c(-c3cccnc3)nc2n1	-15
98	CN(C)c1ccc(/C=N/NC(N)=S)cc1[N+](=O)[O-]	-10
99	O=C(NCCOc1ccccc1F)c1cc([N+](=O)[O-])ccc1N1CCOCC1	-4
100	CCOc1ccc(-c2nnn(CC(=O)N3CCN(c4ccc(OC)cc4)CC3)n2)cc1OCC	-10

(continued)
No.	Compound	OX1R antagonist
101	COc1ccc(C(C2C(=O)CC(C)(C)CC2=O)C2C(=O)CC(C)(C)CC2=O)cc1	-20
102	CCCC(=O)c1cc(F)c(N2CCN(C(=O)OCC)CC2)cc1C	-22
103	C=CCn1c(=NC(=O)c2cc(Cl)sc2Cl)sc2cc(S(N)(=O)=O)ccc21	-7
104	COc1cc(OC)cc(C(=O)Nc2ccc(S(=O)(=O)Nc3ccccn3)cc2)c1	-22
105	CCN1CCN(C(=S)Nc2ccc3nc4n(c(=O)c3c2)CCCCC4)CC1	-13
106	COc1ccc(CN2CCNC(=O)C2CC(=O)NCC2CCOCC2)c(F)c1 (centres undefined)	-2
107	Cc1ccc(CSc2nnc(-c3cccnc3)n2N)cc1	-4
108	COc1ccc(OCC(O)CN2CCN(c3ccc(OC)cc3)CC2)cc1 (centres undefined)	-12
109	O=C(NCc1ccccc1)C1=C[C@@H](c2ccc(C(F)(F)F)cc2)C[C@@H](OCCCCO)O1	-14
110	CCC(Cc1ccccc1)NS(=O)(=O)c1c(C)nc2scc(C)n2c1=O (centres undefined)	-6
111	COC(=O)Nc1ccc(Cc2ccncc2)cc1	4
112	Fc1ccc(CNC(=S)NCc2ccc(F)cc2)cc1	0
113	Cc1c(C)c2cc3c(C)coc3cc2oc1=O	-14
114	O=C(NCc1ccc(F)cc1)Nc1ccccc1	-5
115	CS(=O)(=O)N(Cc1ccc(C(=O)NC2CCCCC2O)cc1)c1ccccc1 (centres undefined)	-7
116	CN(C)S(=O)(=O)c1ccc(C(=O)Nc2nnc(SCc3ccccc3)s2)cc1	3
117	CC(/C=N/NC(=O)c1nnn(-c2nonc2N)c1CN(C)C)=C\c1ccco1	0
118	CCOC(=O)Cn1c(=O)oc2cc(S(=O)(=O)Nc3cccc(C)c3)ccc21	1
119	CCCNC(=O)c1ccc2c(c1)ncn2-c1cc(C)cc(C)c1	-28
120	COC(=O)c1ccc(=O)n(-c2ccc(OC)cc2)c1	-12
121	O=C(COc1ccccc1)Nc1cc(C(F)(F)F)ccc1N1CCCC1	-22
122	COc1ccc(NC(=O)NCc2ccncc2)cc1	-11
123	Cc1cc(C)cc(NC(=O)C2CCN(S(C)(=O)=O)CC2)c1	17
124	CCCc1cc(C(=O)N/N=C/c2ccc(CC)s2)c2ccccc2n1	-35
125	Cc1nc(SC2CC(=O)N(c3ccccc3)C2=O)nc2c1CCCC2 (centres undefined)	34

Looked up one by one from above (four):
No.	Compound	OX1R antagonist
103	C=CCn1c(=NC(=O)c2cc(Cl)sc2Cl)sc2cc(S(N)(=O)=O)ccc21	-7
101	COc1ccc(C(C2C(=O)CC(C)(C)CC2=O)C2C(=O)CC(C)(C)CC2=O)cc1	-20
116	CN(C)S(=O)(=O)c1ccc(C(=O)Nc2nnc(SCc3ccccc3)s2)cc1	3
113	Cc1c(C)c2cc3c(C)coc3cc2oc1=O	-14

Exported with values ahead of the structure: four of the compounds above
| item | OX1R antagonist | SMILES |
| --- | --- | --- |
| 111 | 4 | COC(=O)Nc1ccc(Cc2ccncc2)cc1 |
| 106 | -2 | COc1ccc(CN2CCNC(=O)C2CC(=O)NCC2CCOCC2)c(F)c1 (centres undefined) |
| 121 | -22 | O=C(COc1ccccc1)Nc1cc(C(F)(F)F)ccc1N1CCCC1 |
| 107 | -4 | Cc1ccc(CSc2nnc(-c3cccnc3)n2N)cc1 |

Next structures follow.
No.	Compound	OX1R antagonist
126	CCN(Cc1ccncc1)Cc1nc(-c2ccc(C(=O)OC)cc2)no1	-33
127	COc1ccc(-c2noc(N3CCC(C(=O)NCCCN4CCC(C)CC4)CC3)n2)cc1	-15
128	CSc1cccc2sc(NC(=O)C3=COCCO3)nc12	-22
129	O=C(OCC#CCSc1nnc(-c2ccc(Br)cc2)o1)c1ccco1	-27
130	O=C1CCN(Cc2ccccc2)S(=O)(=O)c2ccccc21	-11
131	CC(=O)Nc1sc(C)c(C)c1C(=O)Nc1ccc(C)cc1	-13
